# Source: PubChem BioAssay (Southern Research Institute)
# Mtb H37Rv: Mycobacterium tuberculosis H37Rv growth inhibition, cell based, confirmatory dose response (AID 1949); most inactive calls were filed without a number and no value below 0 was filed; one-dose inhibition, % at 10 µg/mL; IC50 in µg/mL for titrated hits; 100,000 compounds, 1.6% hits;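 active = confirmed in a dose series; inconclusive = about 50% or more but not retested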;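 also: bacteria grown 7 days with compound before Alamar blue readout; 0% = untreated bacteria and 100% = reference antibiotic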
# Numbers without * were called inactive; i = inactive; ? = inconclusive.
SMILES | Mtb H37Rv
CC1=C(C(=O)OCC2CCCO2)C(c2ccc(C)o2)C2=C(CCCC2=O)N1 (stereo not given) | 1%
CC(=O)N1c2ccccc2NC2=C(C(=O)CCC2)C1c1cccs1 (stereo not given) | i
Cc1c(Cl)cccc1NS(=O)(=O)c1ccc(Br)cc1 | i
O=C(NC(=S)NC12CC3CC(CC(C3)C1)C2)c1ccc2ccccc2c1 | i
COc1cc(NC(=O)c2ccccc2)ccc1NC(=O)Cc1ccccc1 | i
CCc1ncc(C(O)c2cccc(OC)c2OC)n1C (stereo not given) | 1%
CCc1ccc(N2CC(C(=O)NC(C)CC)CC2=O)cc1 (stereo not given) | 3%
Cc1cccc(NC(=S)NNC(=S)NCc2ccccc2)c1 | i
COc1ccc(C2(C(=O)NC(C)C)CCOCC2)cc1 | i
O=C(Nc1cccc(Oc2ccc3c(c2)C(=O)NC3=O)c1)c1ccco1 | i
C=CCNC(=S)NN(c1ccccc1)c1ccccc1 | i
OCCNCCCCCCOc1ccc(Cl)cc1 | i
CCOc1ccc(C2CC(=O)n3nc(-c4ccc(F)cc4)nc3S2)cc1OC (stereo not given) | i
COC(=O)c1ccc(C(=O)OC)c(NC(=O)Nc2ccc(F)cc2)c1 | i
Cc1cccc(NC(=O)C(NC(=O)c2ccccc2)C(C)C)n1 (stereo not given) | i
CCc1ccc(NC(=O)C(=O)NCCCCC2CCCNC2)cc1 (stereo not given) | i
CCc1ccc(C(=O)NC(=S)Nc2ccc(C(=O)OC)cc2)cc1 | 4µg/mL*
CC(C)(C)c1ccc(OCCCC(=O)Nc2nncs2)cc1 | i
O=C(COc1cc(O)c2c(=O)cc(-c3ccccc3)oc2c1)c1ccccc1 | i
Cc1cccc(C)c1NS(=O)(=O)c1ccc(NS(=O)(=O)c2ccc3ccccc3c2)cc1 | i
Cc1c(NC(=O)c2cc(-n3cnnc3)ccc2Cl)cccc1-c1nc2ccccc2s1 | i
Cc1ccc(Cl)cc1N(CC(=O)NC1CCCCCC1)S(=O)(=O)c1ccccc1 | i
COC(=O)Cn1nc([N+](=O)[O-])n(CC(=O)OC)c1=O | i
OCCn1c2ccccc2c2cc(Br)ccc21 | 14%
Cn1c(SCC(=O)Nc2cccc(C(=O)O)c2)nnc1-c1ccccc1 | i
O=C(c1ccc(Br)o1)n1nnc2ccccc21 | i
Cc1cc(=O)[nH]c(SCc2nc3ccc(C(=O)c4ccccc4)cc3[nH]2)n1 | i
CC(C)(C)C(=O)N1CCN(c2nnnn2-c2ccccc2)CC1 | i
O=S(=O)(NCC1CCCO1)c1cc(Cl)c(Cl)cc1Cl (stereo not given) | i
Cc1ccc2ccc(C(Nc3ccccn3)c3ccc(C(C)C)cc3)c(O)c2n1 (stereo not given) | i

# Pulled by structure from the entries so far, three records:
SMILES | Mtb H37Rv
C=CCNC(=S)NN(c1ccccc1)c1ccccc1 | i
CC(C)(C)c1ccc(OCCCC(=O)Nc2nncs2)cc1 | i
Cc1c(Cl)cccc1NS(=O)(=O)c1ccc(Br)cc1 | i

# (further entries)
SMILES | Mtb H37Rv
C=CCN(CC=C)CCOc1ccccc1 | i
O=C(Nc1cccc2ncccc12)c1ccccc1[N+](=O)[O-] | i
CCS(=O)(=O)CCSc1nc(C)cc(C)c1C#N | i
COc1ccccc1NC(=O)COc1ccc(/C=C/c2[nH]c(=O)[nH]c(=O)c2[N+](=O)[O-])cc1OC | i
CC(=O)c1cccc(NC(=O)CSCc2c(Cl)cccc2Cl)c1 | i
Cc1ccccc1C(=O)NC(c1ccccc1)c1ccc2c3c(cccc13)CC2 (stereo not given) | 8%
CN(C)CCNC(=O)c1c(F)c(F)c(F)c(F)c1F | i
CCN1CCN(C(=O)c2ccccc2Oc2ccccc2)CC1 | i
CCOC(=O)CNC(=S)Nc1sc(C(=O)OC)c(C)c1C(=O)OC | i
O=C(O)CCCC(=O)N1CCCc2ccccc21 | i

# Next part (two carried over from the part before).
SMILES | Mtb H37Rv
CCOC(=O)CNC(=S)Nc1sc(C(=O)OC)c(C)c1C(=O)OC | i
O=C(O)CCCC(=O)N1CCCc2ccccc21 | i
CCOc1cc2occ(-c3ccccc3Cl)c(=O)c2cc1CC | i
CC1=C(C(=O)Nc2ccccc2)C(c2ccccc2)C(C#N)=C(SCc2ccncc2)N1 (stereo not given) | i
Cc1ccc(-c2nc(Cc3ccccc3Cl)no2)cc1 | 1%
Cc1ccc2oc(-c3ccc(C)c(NC(=O)/C=C/c4ccco4)c3)nc2c1 | 24%
O=C(CC1(c2ccc(Cl)cc2)C(=O)c2ccccc2C1=O)N1CCOCC1 | i
CC1(C(=O)Oc2ccccc2)Cc2ccccc2C(=O)O1 (stereo not given) | i
COc1cc(SC)ccc1C(=O)NCc1cccnc1 | 4%
Cc1cc(OCC(=O)N2CCN(c3ccc([N+](=O)[O-])cc3)CC2)cc(C)c1Br | i
Cc1ccccc1C1CC(=O)NC(SCC(=O)Nc2cccc(C(F)(F)F)c2)=C1C#N (stereo not given) | i
Cc1ccc(NS(=O)(=O)c2cccs2)c(C)c1 | i

# A different layout for 4 compounds above:
Cn1c(SCC(=O)Nc2cccc(C(=O)O)c2)nnc1-c1ccccc1
  Mtb H37Rv: i

O=C(c1ccc(Br)o1)n1nnc2ccccc21
  Mtb H37Rv: i

Cc1cc(=O)[nH]c(SCc2nc3ccc(C(=O)c4ccccc4)cc3[nH]2)n1
  Mtb H37Rv: i

CC(C)(C)C(=O)N1CCN(c2nnnn2-c2ccccc2)CC1
  Mtb H37Rv: i

# (next part)
SMILES | Mtb H37Rv
COc1ccccc1OCC(=O)N(Cc1ccccc1)C(C)(C)C | i
COc1ccc(OC)c(C(C)NC(=S)NCC2CCCO2)c1 (stereo not given) | 1%
O=C(O)CCC(NC(=O)c1ccc(Cl)cc1)C(=O)O (stereo not given) | i
CCN(CC)C(=O)CSc1nc(-c2ccccc2)cc(=O)[nH]1 | i
Cc1sc2nc(-c3cccs3)oc(=O)c2c1C | 20%
COC(=O)c1ccc(NC(=O)CSc2nnc(NC(C)=O)s2)cc1 | i
CCC(=O)Nc1ccc2c(c1)ncn2-c1ccccc1C | 4%
COc1ccc(OC)c(NC(=S)Nc2ccc(Nc3ccccc3)cc2)c1 | i
Cc1ccc(NC(=O)C2C3CC/C=C\CC/C=C/CCC32)cc1C (stereo not given) | 24µg/mL*
CC(Sc1nc(N2CCOCC2)c2c(c1C#N)CC(C)(C)OC2)C(=O)Nc1ccccc1 (stereo not given) | i
COc1ccc(CNC(=S)NCc2ccco2)cc1 | i
CC(=O)c1cccc(N(CC(=O)N2CCCCC2)S(C)(=O)=O)c1 | i
C=CCc1cc(OC)ccc1OCCN(CC=C)CC=C | i
COc1ccc(C)cc1NC(=O)COc1ccc(-c2ccccc2)cc1 | 35%
COC(=O)c1c(-c2cccnc2)csc1NC(=O)c1cc(C)on1 | 14%
COC(=O)C1=C(C)Nc2nc(-c3ccccc3)nn2C1c1cccnc1 (stereo not given) | i
O=C(CS(=O)(=O)c1ccccc1)Nc1ccc2c(c1)OCCO2 | i
CCc1nnc(NC(=O)CN2CCN(C(=O)c3ccccc3)CC2)s1 | i
COC(=O)c1c(NC(=S)N2CCc3ccccc32)sc2c1CCC(C)C2 (stereo not given) | i
O=C(NC(Cc1ccccc1)C(=O)O)C1CCCCC1 (stereo not given) | i
O=C(C1CCN(C(=S)NC2CC2)CC1)N1CCCCCC1 | i
Cc1cc(C)c(NC(=O)c2ccc(C)o2)c(C)c1 | 0%
Fc1ccc(OCCCCOc2ccc(F)cc2)cc1 | i
COc1ccc(-c2cc3ccccc3n2CC(O)CNC(C)(C)C)cc1 (stereo not given) | 3%
COc1ccc2nc(NS(=O)(=O)c3ccc(Cl)cc3)c(Nc3cccc(NC(C)=O)c3)nc2c1 | i
COC(=O)CSc1nnc(-c2cccs2)n1-c1ccc(Cl)cc1 | i
CC(NC1CCCCC1)c1cc(Cl)ccc1O (stereo not given) | 1%
CCCOc1cccc(C(=O)Nc2ccc(C(C)=O)cc2)c1 | 3%
O=C(Nc1ccccc1C(F)(F)F)N1CCN(C(c2ccccc2)c2ccccc2)CC1 | i
Cc1sc2nc(SCC(=O)NCc3ccco3)n(C)c(=O)c2c1C | i
CCC(Oc1ccccc1)C(=O)N1CCN(c2ncccn2)CC1 (stereo not given) | i
OCCNCc1ccc(OCc2cccs2)cc1 | 2%
CC(=O)Oc1ccc(C(=O)Nc2cccc(C#N)c2)cc1 | i
CCc1nnc(NC(=O)c2ccc(-c3ccccc3Cl)o2)s1 | i
Cc1c(Br)ccc(NC(=O)c2ccccc2)c1C | i
CCCn1c(COC)nc2ccccc21 | i
O=C(OCc1ccccc1)c1cccc(-c2nnc(-c3ccccc3)o2)c1 | i
COc1ccc(CN(C(=O)c2oc3ccc(C)cc3c2C)C2CCS(=O)(=O)C2)cc1 (stereo not given) | i
O=C(CSc1ncn[nH]1)Nc1ccc2c(c1)OCCO2 | i
O=C(Cn1c(-c2cncs2)nc2ccccc21)NCc1ccccc1 | i
CC(=O)c1cccc(NC(=O)CSc2nnc3scc(-c4ccccc4)n23)c1 | i
COc1ccc(CCN)c2ccccc12 | 3%
Cc1ccc(NC(=O)COc2ccc(F)cc2)cc1 | i
O=c1cc(-c2ccccc2)nc(N2CCN(Cc3ccccc3)CC2)[nH]1 | ?
Cc1ccc(C(C)(C)C)c(OCCCCNCc2ccccc2)c1 | i
CN1C2=C(C(=O)CC(C)(C)C2)C(c2ccc3c(c2)OCO3)C2=C1CC(C)(C)CC2=O | i
O=C(Cc1ccccc1)Nc1ccc(S(=O)(=O)N2CCCCCC2)cc1 | i
CN(C)CC(=O)Nc1ccccc1Br | i
O=C(NCc1ccco1)c1ccc(S(=O)(=O)c2cccc(S(=O)(=O)N3CCOCC3)c2)cc1 | i
COc1cc(C(=O)Nc2ccc(N3CCN(C)CC3)cc2)cc(OC)c1OC | i

# Continued:
SMILES | Mtb H37Rv
COc1ccccc1NC(=O)c1cccc(NC(=O)C(c2ccccc2)c2ccccc2)c1 | 5%
CCOC(=O)c1sc(NC(=O)CSc2nc3sc4c(c3c(=O)n2C)CCCC4)nc1C | i
Cc1cc(C)c(NC(=O)CSCc2ccc(F)cc2)c(Cl)c1 | 26%
Cc1sc(NC(=O)Cn2cnc3ccccc3c2=O)c(C#N)c1C | i

# The list is partial; rates above refer to the full screens.
